Bioassay records: PubChem BioAssay, several laboratories
INS promoter inh: TRM-6 insulin promoter activity inhibition | TRM-6 cells (human fetal islet line), insulin promoter-eGFP reporter, imaging; reporter expression induced with tamoxifen | inhibition, % at 2 µM | 130,000 compounds, 0.9% hits | AID 1273;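 active = inhibition above the mean plus 3 SD, with well images judged a real hit on visual review, cut at about 60% in these data, passing the limit was not always enough; inconclusive = inhibition over the cutoff but images rejected on review; inactive = inhibition not above the cutoff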
HSV replic up: HSV replication enhancement; 220,000 compounds, 0.005% hits; AID 1956; HSV replication augmentation in cells, fold increase; maximum fold increase;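 active = peak rise of 1.5-fold or more in the series; inconclusive = self-fluorescent or not available for retest; tested in PC3 cells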;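 also: first round at 10 µM; read as green reporter fluorescence; hits show the peak of a series up to 25 µM; 1 = signal of infected wells without compound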
RGS16-Gao HTS: modulates binding between human RGS16 and Galphao. O15492+P09471. bead-based flow cytometry RGS16-Galphao binding, fluorescence; actives lie on both sides. binding response (% of control), % at 10 µM. 220,000 compounds, 0.38% hits;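 active = below 25% or above 175%, edge rows of some plates excepted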;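 also: Galphao activated by GDP with aluminum fluoride before binding; 100% = wells without compound and 0% = beads without RGS; some results beyond the cut were filed as inactive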
GALR2 agonist: GALR2 (human) receptor agonism; AID 803; 140,000 compounds, 0.48% hits; activation, %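 (tested at 5 µM)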; O43603; GALR2-expressing cells, agonist activation read-out;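 active = above mean plus 3 SD of all compounds, about 5% in these data, not always enough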;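 also: 0% = vehicle buffer wells and 100% = reference agonist at full effect; tested in CHO reporter cells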
PKD1 inh: blocks activity of human protein kinase D1; Q15139; AID 797; inhibition, %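 (about 10 µM by stock and volumes)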; PKD1 kinase fluorescence polarization assay; 200,000 compounds, 0.056% hits;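 active = inhibition of 50% or more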;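 also: controls were vehicle for no effect and a reference inhibitor for full effect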
Target sequence (Q15139 whole entry, looked up): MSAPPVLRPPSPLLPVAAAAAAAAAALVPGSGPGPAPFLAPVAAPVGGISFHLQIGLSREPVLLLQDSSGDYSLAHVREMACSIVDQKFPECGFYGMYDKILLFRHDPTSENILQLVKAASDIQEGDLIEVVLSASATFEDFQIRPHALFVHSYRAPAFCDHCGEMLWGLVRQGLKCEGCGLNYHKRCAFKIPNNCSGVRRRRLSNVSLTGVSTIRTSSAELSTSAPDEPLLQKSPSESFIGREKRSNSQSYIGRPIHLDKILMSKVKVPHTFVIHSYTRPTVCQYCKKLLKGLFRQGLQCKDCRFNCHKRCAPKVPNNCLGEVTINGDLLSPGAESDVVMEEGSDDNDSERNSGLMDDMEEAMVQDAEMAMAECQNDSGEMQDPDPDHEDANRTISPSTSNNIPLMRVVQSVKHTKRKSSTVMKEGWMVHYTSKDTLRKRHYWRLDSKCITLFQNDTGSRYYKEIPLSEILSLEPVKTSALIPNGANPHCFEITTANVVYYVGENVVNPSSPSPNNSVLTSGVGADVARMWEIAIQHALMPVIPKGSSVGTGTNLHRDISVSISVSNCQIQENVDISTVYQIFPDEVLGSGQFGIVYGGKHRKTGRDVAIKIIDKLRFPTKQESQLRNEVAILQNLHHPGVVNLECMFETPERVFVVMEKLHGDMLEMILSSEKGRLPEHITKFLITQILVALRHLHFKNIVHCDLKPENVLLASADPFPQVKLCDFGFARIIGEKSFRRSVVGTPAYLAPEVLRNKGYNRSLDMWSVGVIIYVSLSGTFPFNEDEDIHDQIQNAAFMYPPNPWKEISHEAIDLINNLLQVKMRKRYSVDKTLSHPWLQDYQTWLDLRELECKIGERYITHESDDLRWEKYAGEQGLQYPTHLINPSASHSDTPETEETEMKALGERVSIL
INS promoter inh cell count: recorded beside INS promoter inh, whose call it bears; normalized cell count, %; measured here: cell count, toxicity; reference of the scale not given here;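 cells exposed to compound for 48 h; stained nuclei by imaging scaled within each plate; lower means fewer cells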
HSV replic up primary fold: recorded beside HSV replic up, whose call it bears; fold increase; compound at 10 µM; measured here: primary screen fold increase 10 uM; tested in PC3 cells;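 GFP signal in the first replicate; 1 = infected wells without compound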
* hit, by the source's call; i = inactive; ? = inconclusive; nt = not tested or not shown. Random draw from the library. About 1.3% of those tested had a hit in this group.

SMILES	INS promoter inh	INS promoter inh cell count	HSV replic up	HSV replic up primary fold	RGS16-Gao HTS	GALR2 agonist	PKD1 inh
Cc1ccc(NC(=S)NNC(=O)Cn2nc([N+](=O)[O-])cc2C)cc1	-8	64	i	0.91	91	-2.6	9
Cc1ccc(NC(=O)CSc2ncccn2)cc1F	-36	103	i	0.98	100	nt	-6
CCOc1ccc(NC(=O)C2CC(=O)OC2c2ccccc2)cc1 (configuration not stated)	nt	nt	i	0.89	96	nt	-1
O=Nc1c(O)n(Cc2ccccc2)c2ccccc12	nt	nt	i	0.9	105	nt	nt
CCOC(=O)c1[nH]nc(C(=O)c2ccc(Br)cc2)c1O	nt	nt	i	0.84	112	-2.2	-2
COc1nc(-c2ccc(C)cc2)ccc1-c1noc(-c2ccco2)n1	57	134	i	1	101	-1.5	3
CC(C)(CO)N=Cc1c(O)[nH]c2ccccc12	-11	157	i	0.98	97	-2.3	-2
COc1ccc(CN2C=C3C(=O)C(C)(OC(=O)CCc4ccccc4)C(=O)C=C3C=C2c2ccc(C#N)cc2)cc1 (configuration not stated)	nt	nt	i	1.1	107	nt	nt
COc1cccc(NC(=S)/C(=C(\[O-])c2ccc([N+](=O)[O-])cc2)[n+]2ccccc2)c1	33	122	i	0.92	118	nt	-6
CCSC1=C(C#N)C(c2ccc(Cl)cc2)C2=C(CCCC2=O)N1 (configuration not stated)	nt	nt	i	1.2	104	0.0	-11
Cc1ccc(-c2cc(C(=O)n3cnc4ccccc43)c3ccccc3n2)cc1C	nt	nt	i	0.88	103	-0.9	7
COc1ccc2sc(N3C(=O)CC(Cc4cccc(C)c4)C3=O)nc2c1 (configuration not stated)	nt	nt	i	0.95	99	-2.0	-1
COc1ccc(CCN(Cc2cc3ccc(C)cc3n3nnnc23)C(C)=O)cc1OC	-35	40	i	1.1	99	nt	3
CC/C(=N/O)C(=O)c1ccc(Br)cc1	-36	130	i	0.97	103	nt	-1
COc1ccc(C(=O)Nc2sc3c(c2C#N)CCN(C(C)=O)C3)cc1	-118	64	i	0.93	104	nt	0
Oc1ccc(N2CCN(Cc3ccc(OCCCN4CCCCC4)cc3)CC2)cc1	nt	nt	i	0.8	97	nt	1
CCCCn1c(O)c(/C=C2\C=NN=C2c2ccccc2)sc1=S	nt	nt	i	1	103	-1.3	-1
Cc1ccsc1C(=O)Nc1nc2ccccc2[nH]1	nt	nt	i	1.1	80	nt	nt
CC(=O)N(Cc1ccco1)C1(C(=O)NC2CCCC2)CCCCC1	-26	80	i	1	106	-0.4	-2
O=C1c2ccccc2C(=O)N1Cc1cc(-c2ccccc2)no1	-22	88	i	1.1	126	-0.6	-11
Oc1cc2c(cc1CN1CCN(c3cccc(C(F)(F)F)c3)CC1)CCC2	-82	97	i	0.92	101	-0.8	1
Clc1ccc(OCCn2ccnc2)c(Br)c1	-22	85	i	0.92	102	-0.8	-7
CC(C)Cc1ccc(C(C)C(=O)Nc2ccccc2O)cc1 (configuration not stated)	nt	nt	i	1.1	69	nt	nt
COc1cc(OC)c(NC(=O)c2ccc3c(SCC(=O)O)c4c(nc3c2)CCCC4)cc1Cl	nt	nt	i	0.9	101	nt	-7
Cc1ccc(S(=O)(=O)N2CCC(C(=O)N3CCC(C(=O)NCc4cccnc4)CC3)CC2)cc1	23	118	i	0.95	106	0.5	6
S=c1[nH]nc(-c2ccncc2)n1/N=C/c1cccc2ccccc12	20	139	i	0.97	81	-1.9	0
COc1cccc(NC(=O)C2CCCN2C(=O)OCc2ccccc2)c1 (configuration not stated)	nt	nt	i	0.97	104	-1.2	-2
CN(C)c1ccc(NC(=S)NC(=O)/C=C/c2ccc(Cl)cc2)cc1	-56	100	i	0.94	96	-3.5	-21
CCOC(=O)Cn1nc(C)c(NC(=O)COc2ccc(C)c(C)c2)c1C	nt	nt	i	0.94	97	nt	nt
COc1ccc(C(=O)NN=C(Cc2ccccc2)Cc2ccccc2)cc1OC	-14	91	i	0.87	100	-1.1	-2
CCN(CC)S(=O)(=O)c1ccc2nnn(O)c2c1	26	86	i	1	99	nt	3
Cc1ccc(NC(=O)c2oc(=O)c3ccccc3c2-c2ccccc2)c(C)c1	-23	97	i	0.96	48	-1.3	-4
O=C(CN1C(=O)CSCC1=O)NCc1ccc(F)cc1	nt	nt	i	1.1	104	-1.6	-6
CCn1ccnc1CN(C)Cc1nc(-c2cccc(Cl)c2)no1	nt	nt	i	0.94	115	nt	-4
CCOC(=O)Nc1ccc(=O)n(Cc2c(Cl)cccc2Cl)c1	21	112	i	0.91	97	-3.9	4
N/C(Cc1ccc([N+](=O)[O-])cc1)=N\OC(=O)c1ccc2ccccc2c1	9	122	i	0.9	94	-1.4	-6
COc1cccc(NC(=O)N(C2CCCCC2)C(C)c2cccs2)c1 (configuration not stated)	-20	66	i	1.2	101	-1.5	0
Cc1c(N=C2NC(=O)/C(=C/c3cccc([N+](=O)[O-])c3)S2)c(=O)n(-c2ccccc2)n1C	4	72	?	nt	105	0.3	-12
CCCc1nc(Nc2nc3ccccc3o2)nc(C)c1C(=O)OCC	0	73	i	0.62	100	-2.2	3
COc1cc(NS(=O)(=O)c2ccc(NC(=S)NC(=O)c3ccco3)cc2)ncn1	nt	nt	i	0.94	109	nt	-11
COc1ccccc1NC(=O)CC1Nc2ccccc2NC1=O (configuration not stated)	70	131	i	1.3	90	-0.5	-3
CC1Oc2ccccc2N(CC(=O)Nc2ccc3c(c2)OCO3)C1=O (configuration not stated)	46	180	i	1.3	103	-2.2	8
COc1ccc(CCNC(=O)COC(=O)Cc2cccc3ccccc23)cc1	-50	66	i	0.89	103	-1.8	-2
CCOC(=O)CSCc1c(C#N)c2ccccc2n1C	-25	121	i	0.86	104	-1.2	-8
O=S1(=O)CCN(OCc2ccc(Cl)cc2)CC1	7	89	i	1	97	nt	-7
CC(NC(=O)C(=O)N/N=C\c1cccc([N+](=O)[O-])c1)c1ccccc1 (configuration not stated)	nt	nt	i	0.99	113	nt	8
Cc1cccc(N2CN=c3s/c(=C\c4ccncc4)c(=O)n3C2)c1	-70	107	nt	nt	97	-0.6	1
CCN(CC)C(=O)n1nc(C)c(CN2C(=O)c3ccccc3C2=O)c1C	-44	84	i	0.83	nt	-1.8	-6
Cc1ccc(-n2c(-c3ccncc3)n[nH]c2=S)cc1	nt	nt	i	1	97	nt	12
Cc1cccc(C(C)(C)C)c1OCCn1ccnc1	89*	41*	i	0.94	86	-2.0	0

Later entries:
SMILES	INS promoter inh	INS promoter inh cell count	HSV replic up	HSV replic up primary fold	RGS16-Gao HTS	GALR2 agonist	PKD1 inh
C=CCn1c(=NC(=O)c2ccco2)sc2cc(C(=O)OCC)ccc21	nt	nt	i	0.96	103	-0.9	-5
COc1ccc(-c2nn[nH]n2)cc1OC	6	106	i	1	104	0.2	-2
O=C1C2C(c3ccccc3)C=CC(c3ccccc3)C2C(=O)N1c1cccnc1 (configuration not stated)	nt	nt	i	1.1	104	-0.4	-13
CCn1c(COc2cccc(OC)c2)nnc1SCC(=O)Nc1cc(OC)ccc1OC	nt	nt	i	0.96	102	-1.8	5
Cc1ncc([N+](=O)[O-])n1Cc1ccc(Br)cc1	0	114	i	0.92	103	nt	3
CCN(CC)S(=O)(=O)c1ccc2c(c1)nc(SCC(=O)NC1CC1)n2-c1ccccc1OC	-4	223	i	0.93	96	0.9	-5
CCOc1ccc(-c2nnc(NC3=NCCCCC3)o2)cc1	22	192	i	0.96	100	17*	2
Cc1ccnc(NC(=O)C(C)N2C(=O)c3ccccc3C2=O)c1 (configuration not stated)	24	109	i	1.2	102	nt	1
COC(=O)CC1(c2ccc(OC)cc2)C(=O)c2ccccc2C1=O	nt	nt	i	1	112	nt	nt
Cc1ccc(C2C(C(=O)c3sc(C)nc3C)=C(O)C(=O)N2CCN2CCOCC2)o1 (configuration not stated)	-8	102	i	0.96	98	-2.2	-6

Filtered by structure, those above containing an NH in an aromatic ring
SMILES	INS promoter inh	INS promoter inh cell count	HSV replic up	HSV replic up primary fold	RGS16-Gao HTS	GALR2 agonist	PKD1 inh
CCOC(=O)c1[nH]nc(C(=O)c2ccc(Br)cc2)c1O	nt	nt	i	0.84	112	-2.2	-2
CC(C)(CO)N=Cc1c(O)[nH]c2ccccc12	-11	157	i	0.98	97	-2.3	-2
Cc1ccsc1C(=O)Nc1nc2ccccc2[nH]1	nt	nt	i	1.1	80	nt	nt
S=c1[nH]nc(-c2ccncc2)n1/N=C/c1cccc2ccccc12	20	139	i	0.97	81	-1.9	0
Cc1ccc(-n2c(-c3ccncc3)n[nH]c2=S)cc1	nt	nt	i	1	97	nt	12
COc1ccc(-c2nn[nH]n2)cc1OC	6	106	i	1	104	0.2	-2

(next part)
SMILES	INS promoter inh	INS promoter inh cell count	HSV replic up	HSV replic up primary fold	RGS16-Gao HTS	GALR2 agonist	PKD1 inh
CCOC(=O)C(=O)NNc1ccccc1OC	nt	nt	i	0.97	105	nt	nt
CCc1ccc(OCCOCC(O)CNC(C)(C)C)cc1 (configuration not stated)	nt	nt	i	0.93	103	-1.4	-5
Cc1ccc(CSCCNC(=O)CN(c2cccc([N+](=O)[O-])c2)S(C)(=O)=O)cc1	nt	nt	i	0.97	93	nt	1
CC1CCCCN1C(=O)c1ccccc1NC(=O)c1ccco1 (configuration not stated)	nt	nt	i	0.96	103	-1.0	-3
O=C(COC(=O)CCCc1nc2ccccc2s1)NC(=O)NCc1ccco1	nt	nt	i	0.97	103	nt	-2
O=Cc1ccnc(-c2ccc(OC(=O)c3ccco3)cc2)n1	nt	nt	i	0.94	99	nt	-1
O=S(=O)(NCCSCc1c(Cl)cccc1Cl)c1ccc2c(c1)OCCO2	-34	115	i	0.93	113	-3.3	-2
CN(CCc1ccccn1)C(=O)CCC1CCCN(C(=O)c2ccc3c(c2)OCCO3)C1 (configuration not stated)	nt	nt	i	0.98	94	nt	-12
CC1(C(=O)O)Oc2cccnc2NC1=O (configuration not stated)	-409	79	i	0.95	105	nt	-12
COc1cc(C2=NOC(C(=O)NCc3cccs3)C2)cc(OC)c1OC (configuration not stated)	nt	nt	i	0.69	103	88*	0
N/C(=N\OC(=O)C12CC3CC(CC(C3)C1)C2)c1ccccc1	-23	68	i	1.1	109	-3.1	-1
Cc1cccc(NC(=S)N(CCN(C)C)Cc2cc3cc(C)ccc3[nH]c2=O)c1	nt	nt	i	0.97	105	nt	-2
C/C=C(\C)c1nnc(NC(=O)c2ccco2)s1	nt	nt	i	1	113	-1.3	4
CN(Cc1cccs1)C(=O)Cc1c[nH]c2ccccc12	nt	nt	i	1	106	-1.1	-7
CC(=O)[C@@H]1[C@@H](C)N(Cc2ccccc2)C(=O)N[C@H]1c1cccc(C(F)(F)F)c1	nt	nt	i	1.1	98	nt	nt
C/C(N)=C(/C#N)C(=O)COC(=O)[C@@H](NC(=O)c1ccccc1Cl)C(C)C	-164	172	i	0.98	100	nt	-5
CN(CC(=O)Nc1ccc2c(c1)CCC2)CC(=O)Nc1ccccc1Br	nt	nt	i	1.1	101	nt	-1
Cc1nc(-c2ccc(S(=O)(=O)N3CCCN(CCc4ccccc4)CC3)s2)cs1	nt	nt	i	1.2	93	nt	nt
O=C(/C=C/c1nc2ccccc2s1)N1CCCCCC1	14	110	i	0.94	98	nt	-2
CN(C)S(=O)(=O)c1cccc(NC(=O)CSc2nc3c(cc2C#N)C(=O)CC(C)(C)C3)c1	nt	nt	i	0.75	78	1.1	2
O=C(Nc1cccnc1Cl)c1ccc2c(Cl)c3c(nc2c1)CCC3	nt	nt	i	1.1	96	nt	-5
CCCCC(=O)Oc1ccccc1C1SCc2cc(C)c(C)cc2CS1	nt	nt	i	1	100	-1.9	-9
C=CC[N+]1(CC=C)CCOCC1	nt	nt	i	1.1	100	nt	-5
Cc1ccc(C(=O)Nc2nc3ccc(S(C)(=O)=O)cc3s2)s1	9	108	i	1	105	-3.2	5
COc1ccc(OC)c(N2CC(O)(c3cccs3)[N+]3=C2SCCC3)c1 (configuration not stated)	-58	109	i	0.86	102	nt	-9
CCNc1ccc(Br)cc(C(=O)/C=C/c2ccc(Cl)cc2)c1=O	-181	106	i	0.91	89	-2.4	-14
CCCCC1=CC2=C(c3ccco3)C(=O)C(C)(OC(=O)c3ccc(OC)cc3)C(=O)C2=CN1CC1CC1 (configuration not stated)	nt	nt	i	1.3	88	nt	nt
O=C(Cn1nnc2ccccc21)c1ccc(Br)cc1	nt	nt	i	0.87	100	nt	nt
N=C(N)SCc1ccccn1	29	65	i	0.89	105	-0.8	2
